# Vaccinia Venus = inhibitors of vaccinia virus (Venus reporter); Potency, µM (doses to about 36.5 µM), for the others: top-dose activity change, negative = inhibition, most hits filed as inhibitors; 330,000 compounds, 0.46% hits; Vaccinia virus Venus reporter expression, fluorescence; active means well fitted inhibition curve with a large enough effect; inconclusive means small, poorly fitted or top-dose-only effect; inactive means no such curve, though single readings can be large or run the other way; tested in A549 cells; note: nearly all actives have a fitted effect of over 30% in size; inactives centre near -10
# VACV mCherry inh = inhibitors of vaccinia virus infection (mCherry reporter signal) | Potency, µM (series often up to 36.5 µM), for inactives: at the top dose activity change, negative = inhibition, hits mostly inhibitors | 310,000 compounds, 0.63% hits | Vaccinia virus mCherry reporter infection, fluorescence; about a quarter of the inactives have no number; active = well fitted inhibition curve with a large enough effect; inconclusive = small, poorly fitted or top-dose-only effect; inactive = no such curve, though single readings can be large or run the other way; tested in A549 cells; note: nearly all actives have a fitted effect of over 35% in size; inactives centre near -10
# Numbers without * were called inactive; i = inactive; ? = inconclusive; / = no result given; & = joins results of further samples; [ ] = another dose, or the depositor's remark. % is set by controls: 0 for no effect and ±100 for the full control effect; potency is the fitted concentration of half-maximal effect.
# Below each compound: Vaccinia Venus, VACV mCherry inh
Cc1oc(-c2ccccc2F)nc1CS(=O)CC(=O)NCc1ccc2c(c1)OCO2 (centres undefined)
    -16%, i
O=C(Nc1ccc2c(c1)OCCO2)C1CCCN(S(=O)(=O)c2cccnc2)C1 (centres undefined)
    -8%, -9%
COc1ccc(CN2CCN(Cc3ccccc3)CC2)c(OC)c1
    -17%, -17%
CCOC(=O)c1ccc(NC(=O)C(CC)Sc2nncn3c2cc2oc(C)cc23)cc1 (centres undefined)
    -7%, -3%
Cc1ccc(Nc2c(O)nc[nH]c2=O)cc1C
    11%, ?
COc1ccc(O)c(-c2cn[nH]c2-c2cccs2)c1
    -8%, -28%
Cn1c(NC(=O)c2cc(-c3ccc4c(c3)OCO4)nc3ccccc23)cc(=O)n(C)c1=O
    -8%, /
CCc1ccc(CNC(=O)CN2C(=O)CSc3c2c(C)nn3-c2ccccc2)cc1
    -6%, 16%
Cc1ccnc(NC(=O)CNC(=O)c2ccc3ccccc3c2)c1
    -22%, i
O=C(CSc1nc(O)c(C2CCCCC2)c(=O)[nH]1)Nc1ccc(Cl)cc1
    -23%, /
COc1ccc(-n2cc(C#N)c(=O)[nH]c2=O)cc1
    -2%, i
Oc1c(Br)cc(CNC2CCCCC2)cc1Br
    -6%, -24%
CCN1C(=O)[C@H]2[C@@H](c3ccc(-c4ccc(C(C)=O)cc4)c(OC)c3)N[C@@](Cc3ccccc3)(C(=O)OC)[C@H]2C1=O
    -28%, i
COC(=O)C1=C[C@@H](C(=O)OC)C2C3=C(C(=O)C24CCCCC4)[C@H](C)n2c(=O)n(C)c(=O)n2[C@@H]3C1 (some centres undefined)
    -4%, i
COc1ccc2nc(SCC(=O)c3ccco3)[nH]c2c1
    -26%, ?
COc1ccccc1OCCSc1nc2ccccc2n1CC(=O)N1CCOCC1
    -1%, -5%
CCC(C)(C)NC(=O)C(c1cccc(OC)c1OC)N(C(=O)CCC(=O)Nc1cc(C)on1)C(C)C (centres undefined)
    -12%, -1%
C[C@H](O)[C@@H]1CN2CCc3c([nH]c4ccc(-c5ccc6c(c5)OCO6)cc34)[C@@H]2C[C@@H]1N(C)C(=O)NC1CCCCC1
    ?, ?
COc1cccc(Cn2cnc3c([N+](=O)[O-])c(C)c(C)cc32)c1
    -12%, -24%
Cc1cc(C)nc(SCC(=O)N2CCOCC2)n1
    -5%, -8%
O=C(CC1c2ccccc2C=C(c2ccsc2)N1c1ccc(-c2cccnc2)cc1)C1CC1 (centres undefined)
    1%, 31%[activator]
Cc1ccc(S(=O)(=O)N2CC3(O)CN(C(=O)OC(C)C)N(C(=O)OC(C)C)CC3(OC(=O)Nc3c(C)noc3C)C2)cc1 (centres undefined)
    -10%, i
C#CCNC(=O)C1=C[C@H](c2ccc3c(c2)OCO3)C[C@H](OCCCCO)O1
    -8%, i
Cc1ccccc1-c1ccc(CN2C(C)C(=O)N(Cc3cn(Cc4ccco4)nn3)CCS2(=O)=O)cc1 (centres undefined)
    -24%, -11%
O=C1C(C=NCCCN2CCOCC2)=C(O)c2ccccc21
    -5%, -8%
CC1C(O)=C(c2nc3ccccc3[nH]2)C(=N)N1c1ccccc1 (centres undefined)
    ?, -26%
CC(C)C[C@@H](CN1CCC[C@@H]1CN1C(=S)NC[C@@H]1Cc1ccccc1)N1C[C@H](Cc2ccc(O)cc2)N(CC2CCCCCC2)C1=S
    -9%, 4%
Cc1ccccc1Nc1nc(N2CCOCC2)nc(N2CCOCC2)n1
    -7%, i
C(=N\Nc1ccc2nncn2n1)/c1ccco1
    -7%, -10%
CCN1CCN(C(=O)Cc2ccccc2OC)CC1
    -10%, i

# Gathered by group, those above containing an NH in an aromatic ring.
# Below each compound: Vaccinia Venus, VACV mCherry inh
Cc1ccc(Nc2c(O)nc[nH]c2=O)cc1C
    11%, ?
COc1ccc(O)c(-c2cn[nH]c2-c2cccs2)c1
    -8%, -28%
O=C(CSc1nc(O)c(C2CCCCC2)c(=O)[nH]1)Nc1ccc(Cl)cc1
    -23%, /
COc1ccc(-n2cc(C#N)c(=O)[nH]c2=O)cc1
    -2%, i
COc1ccc2nc(SCC(=O)c3ccco3)[nH]c2c1
    -26%, ?
C[C@H](O)[C@@H]1CN2CCc3c([nH]c4ccc(-c5ccc6c(c5)OCO6)cc34)[C@@H]2C[C@@H]1N(C)C(=O)NC1CCCCC1
    ?, ?
CC1C(O)=C(c2nc3ccccc3[nH]2)C(=N)N1c1ccccc1 (centres undefined)
    ?, -26%

# (further entries)
# Below each compound: Vaccinia Venus, VACV mCherry inh
Cc1cccn2c(=O)c3cc(C(=O)NC(C)c4ccccc4)c(=N)n(CCOCCO)c3nc12 (centres undefined)
    -6%, 6%
CC(C)NC(=O)/C(C#N)=C/c1cccc(NC(=O)c2ccccc2Cl)c1
    -9%, -13%
O=C(Nc1ccc2c(c1)OCO2)c1cc(C2CCCCN2C(=O)c2ccc(Cl)cc2)on1 (centres undefined)
    -10%, -1%
C[C@H]1Cn2cnc(C(=O)NCC(=O)OC(C)(C)C)c2C(=O)N1
    -3%, i
Cc1cc(C(=O)OCC(=O)N(C)C2CCS(=O)(=O)C2)c(C)n1-c1ccccc1 (centres undefined)
    -18%, -15%
CCN(CC)CCNC(=O)c1cccc(NC(=O)C(=O)c2ccccc2NC(C)=O)c1
    -16%, -13%
Cc1ccc(-c2cc(C(=O)Nc3nn[nH]n3)c3ccccc3n2)c(C)c1
    -3%, -14%
COc1ccc(CN2CCOc3ccc(CN4CCC(Oc5cccnc5)CC4)cc3C2)cc1C
    -10%, -26%
COc1ccc(OC)c(S(=O)(=O)NCc2cccnc2)c1
    -6%, i
CC1(C)Cc2c(cnn2-c2cccc(F)c2)C(NC(=O)c2csnn2)C1 (centres undefined)
    -12%, -9%
COc1ccc(CC(=O)OCC(=O)Nc2ccc(Cl)cn2)cc1
    -14%, /
Cc1ccc(S(=O)(=O)N2CCC(C(=O)NCCCN3CCCC3=O)CC2)cc1
    -11%, i
COc1cccc(CNC(=O)c2cc3c(-c4ccccc4F)nn(C)c3s2)c1
    -29%, ?
O=C(NCCN1CCOCC1)c1cc(-c2ccc(F)cc2)nc2ccccc12
    -10%, -12%
COc1ccc(S(N)(=O)=O)cc1C(=O)OCC(=O)N1CC(=O)Nc2ccccc21
    6%, -15%
CCOc1ccc(-c2cccc(NC(=O)c3cccs3)c2)nn1
    -15%, -12%
CCOc1ccccc1CNC(=O)CCn1c(=O)c2cccn2c2ccc(F)cc21
    -3%, 1%
COc1ccc(C(=O)C(Cc2cc(C(C)=O)ccc2OC)N2CCCC2)cc1 (centres undefined)
    -11%, i
CC1=C(C(=O)Nc2ccccn2)C(c2ccc3c(c2)OCO3)C2=C(CC(C)(C)CC2=O)N1 (centres undefined)
    1%, -7%
C[C@H]1CN([C@@H](C)CO)C(=O)c2cc(NC(=O)Nc3cccc4ccccc34)ccc2O[C@@H]1CN(C)Cc1ccc(-c2ccccc2)cc1
    ?, -24%
CCNc1nnc(SCC(=O)NC2CCCCCC2)s1
    -10%, -21%
COc1ccc(-c2csc(NC(=O)c3ccccc3NS(=O)(=O)c3ccc(C)cc3)n2)cc1
    ?, 11µM*
CNC(=O)/C(=C\c1ccco1)NC(=O)c1ccco1
    -8%, -11%
Cc1ccn2c(Nc3ccc4c(c3)OCO4)c(-c3ccccn3)nc2c1
    12%, -11%
Cn1c(=O)cc(OCCCC(=O)NCCC2=CCCCC2)c2ccccc21
    15%, i
CC(C)(C)n1nc2c(c1NC(=O)Cc1ccc([N+](=O)[O-])cc1)CS(=O)(=O)C2
    -8%, -14%
COc1cccc(-c2cc(C(=O)N3CCN(C(c4ccccc4)c4ccccc4)CC3)no2)c1
    -9%, -22%
COc1ccc(Cl)cc1S(=O)(=O)N1CCCC(C(=O)N2CCOCC2)C1 (centres undefined)
    -16%, i
CCOC(=O)CSC1=C(C#N)C(c2ccc(Cl)cc2)CC(=O)N1 (centres undefined)
    -27%, -30%
COCC(C)NC(=O)c1cc(-c2ccccc2OC)on1 (centres undefined)
    -15%, i
COc1ccccc1C(c1nnnn1CCc1ccccc1)N1CCCCCC1 (centres undefined)
    -27%, -9%
COc1cccc(CNCCSc2nnnn2C)c1OCc1ccc(Cl)cc1
    -23%, i
O=C(CN1CCCCCCC1)N/N=C/c1ccccc1F
    0%, i
CN1CCN/C1=C(/C(Cl)=C(Cl)Cl)[N+](=O)[O-]
    4%, -5%
CC(C)C1C(c2ccccc2)N(C)C(c2ccccc2)CC1(O)c1ccccc1 (centres undefined)
    -24%, ?
CC(C)COP(=O)(c1ccc(N(C)C)cc1)C(Nc1ccccc1)c1cccnc1 (centres undefined)
    -10%, -16%
CCc1nc(Nc2ccc(O)cc2)c2oc3ccccc3c2n1
    -25%, ?
O=C(NCCc1ccccc1)c1ccc(NC(=O)C2CCCC2)cc1
    -8%, -5%
CC1(C(=O)Nc2ccc3c(c2)OCCO3)CCN1C(=O)Cc1cc(F)ccc1F (centres undefined)
    -2%, i
O=C(COC(=O)C1COc2ccccc2O1)c1ccc(F)cc1 (centres undefined)
    -1%, i
CCOc1cccc(-c2c(C(=O)N/N=C/c3ccc(C)o3)nnn2-c2nonc2N)c1
    -1%, -27%
CC(=O)N1CC(=O)N(OCc2ccccc2)C1c1ccc(Cl)cc1Cl (centres undefined)
    -10%, -8%
O=C(NCc1ccc(F)cc1)c1cc(-c2ccncc2)nc2ccccc12
    -1%, -18%
O=C(NCCN1CCOCC1)/C(=C/c1ccccc1)NC(=O)c1ccccc1
    5%, -7%
O=C(NCc1ccco1)C1CC(O)CN1C(=O)Nc1ccccc1 (centres undefined)
    10%, i
COc1ccc(N2CC(C(=O)Nc3ccccc3-c3nc(-c4ccc(C)cc4)no3)CC2=O)cc1 (centres undefined)
    -19%, -14%
Cc1ccc(C)c(N2CCN(CCCNC(=O)c3ccc4nc(N5CCC(C)CC5)sc4c3)CC2)c1
    ?, ?
O=C(C(=O)N1CCN(c2cccc(Cl)c2)CC1)N1CCCCC1
    -5%, -3%
O=C(O)CCn1c(SCc2ccccc2)nc2ccccc21
    2%, -13%
O=C(O)C1CSC2(c3ccc(Br)cc3)CCC(=O)N12 (centres undefined)
    0%, -9%
O=C(COC(=O)Cc1ccc(F)cc1)NCCc1ccccc1
    -12%, -7%
CCCCc1nnc(NC(=O)Cc2ccc(OC)c(S(=O)(=O)N3CCOCC3)c2)s1
    -13%, i
COc1ccc(CN([C@H](C)CO)S(=O)(=O)N(Cc2ccccc2)[C@H](CO)C(C)C)cc1
    -24%&-15%, i
CNc1ccccc(-c2ccc3cc4c(cc3n2)OCO4)c1=O
    -6%, -7%
COc1ccccc1-c1oc2ccccc2c1C#CC1(O)CCCCC1
    -9%, i
Cc1ccc(-c2cc(C(F)F)n3ncc(C(=O)NN4CCCCC4)c3n2)cc1
    6%, i
CC1N(C)c2cc(NC(=O)c3cccs3)c(P(=O)(Nc3ccc([N+](=O)[O-])cc3)N3CCOCC3)cc2C1(C)C (centres undefined)
    -27%, -12%
CCNc1nc(NCC)n2c(SCC(=O)O)nnc2n1
    -7%, i
CCN(c1ccccc1)S(=O)(=O)c1ccc(OC)c(NC(=O)Cn2cnc3c2c(=O)n(C)c(=O)n3C)c1
    -9%, i
Cc1cccc(NC(=O)Cn2nc3c4ccccc4n(Cc4ccccc4)cc-3c2=O)c1
    ?, ?

# Next records.
# Below each compound: Vaccinia Venus, VACV mCherry inh
COC(=O)c1ccc(NC(=O)Cn2nc(C(=O)Nc3ccc(C)cc3)ccc2=O)cc1
    -16%, -14%
O=C(C=Cc1ccccc1)NCCNC(=O)C=Cc1ccccc1
    3%, -11%
CC(C)CCNC(=O)CN(CC1CCCO1)C(=O)CCC(=O)Nc1nccs1 (centres undefined)
    -14%, /
CCCCCCCCN1C(=O)[C@H](CC(=O)N2CCCCC2)C[C@@]2(C(=O)OC)CCCCC=C12
    -15%, i
O=C(COc1ccccc1)Nc1ccc([N+](=O)[O-])cc1
    -16%, -13%
COc1cccc(S(=O)(=O)N(C)C[C@@H]2Oc3ncc(C#CCN(C)C)cc3C(=O)N([C@H](C)CO)C[C@H]2C)c1
    -11%, -7%
O=C(NCCc1ccccc1)c1ccc(CS(=O)(=O)c2ccc(Cl)cc2)o1
    3%, -3%
O=C(NNC(=S)NCc1ccc(Cl)cc1)c1cccnc1
    22%, -5%
CC(C)Cc1nc2cc(NS(=O)(=O)N(C)C)cc(C(=O)N3CCc4ccccc4C3)c2n1C
    7%, -10%
Cc1ccc(-c2csc(NS(=O)(=O)c3cccc(F)c3)n2)o1
    -7%, -1%
C=C1CCC[C@]2(C)C[C@H]3OC(=O)C(CN(C)CC(OC)OC)[C@H]3CC12 (some centres undefined)
    ?, 0.89µM*
COc1cccc(NC(=O)Nc2ccc(CC(=O)O)cc2)c1
    -7%, 7%
CCn1cc(C(=O)O)c(=O)c2cc(F)c(N3CCN(C(=S)NC(=O)c4ccc(F)c(F)c4)CC3)cc21
    -12%, -7%
CCCCN(C)C(=O)c1sc(=O)n(CC(=O)c2ccccc2OC)c1C
    6%, 2%
O=C(NC(=S)Nc1nc2ccccc2s1)c1cccs1
    -2%, -4%
O=C(c1ccc(NS(=O)(=O)c2cccc3cccnc23)cc1)N1CCOCC1
    -20%, -15%
COc1ccc(-n2c(Cc3cccn3C)nnc2SCC(=O)NC2CCCC2)cc1
    -7%, -15%

# Source: PubChem
